Compound activity from PubChem.
VACV Venus inh: qHTS for Stage-Specific Inhibitors of Vaccinia Orthopoxvirus: Venus Reporter Primary qHTS | Vaccinia virus Venus reporter expression, fluorescence | Potency, µM (series often up to 36.5 µM), for the others: at the top dose activity change, negative = inhibition, actives largely listed as inhibitors | 330,000 tested, 0.46% active; active means well fitted inhibition curve with a large enough effect; inconclusive means small, poorly fitted or top-dose-only effect; inactive means no such curve, though single readings can be large or run the other way; tested in A549 cells; also: nearly all actives have a fitted effect of over 30% in size; inactives centre near -10
Vaccinia mCherry: qHTS for Stage-Specific Inhibitors of Vaccinia Orthopoxvirus: mCherry Reporter Primary qHTS | Vaccinia virus mCherry reporter infection, fluorescence; about a quarter of the inactives have no number | Potency, µM (top dose mostly 36.5 µM), inactives show at the top dose activity change, negative = inhibition, actives largely listed as inhibitors | 310,000 tested, 0.63% active | AID 720579, 2013; active = well fitted inhibition curve with a large enough effect; inconclusive = small, poorly fitted or top-dose-only effect; inactive = no such curve, though single readings can be large or run the other way; tested in A549 cells; also: nearly all actives have a fitted effect of over 35% in size; inactives centre near -10
Numbers without * were called inactive; i = inactive; ? = inconclusive; nt = no result given; & = joins results of further samples; [ ] = dose if it differs, or a comment. % is scaled to controls: 0 for no effect and ±100 for the full control effect; potency is read from the fitted curve at half-maximal effect.

Second line of a record: VACV Venus inh | Vaccinia mCherry
CC(=O)NC(CCCCNC(=S)NC1CCCCC1)C(=O)O (stereo not given)
 : -3% | i
Cc1ccccc1C(=O)Nc1ccc(C(=O)N/N=C/c2ccccn2)cc1
 : 2% | -9%
Nc1nnc(SCC(=O)Nc2cccc(S(=O)(=O)N3CCOCC3)c2)s1
 : -16% | -14%
Clc1ccc(OCCCc2nc(-c3ccncc3)no2)c(Cl)c1
 : -17% | -16%
O=C(O)c1ccc(N2C(=O)c3ccccc3C2=O)cc1[N+](=O)[O-]
 : -17% | i
Fc1cccc(/C=N/N=C/c2cccc(F)c2)c1
 : -3% | -5%
COc1cccc(-c2cccc3c2NC(=O)C3(C)Cc2cccc(F)c2)c1 (stereo not given)
 : 4% | 7%
CN(Cc1ccccc1)c1ccc(C(CC(N)=O)NC(=O)c2ccccc2)cc1[N+](=O)[O-] (stereo not given)
 : -28% | -7%
CC/C(=N\O)c1c(O)c2c(n(-c3ccccc3)c1=O)CCCC2
 : -18% | i
CC1(C(=O)Nc2cccc(Oc3ccccc3)c2)CCN1Cc1ccccc1Cl (stereo not given)
 : -3% | i
O=C(COC(=O)c1ccc(Cl)cc1O)Nc1cccnc1Cl
 : -15% | -1%
CNc1ccc(-c2cccc(C#N)c2)cn1
 : 8% | i
CC12CCCC(CC(=O)O)(C1)NC(=O)C2 (stereo not given)
 : -17% | i
Cc1ccc(NC(CNS(=O)(=O)c2ccc(Cl)cc2)c2ccccc2)cc1 (stereo not given)
 : ? | -28%
O=C(O/N=C(\c1ccccc1)c1ccccn1)c1cccc2ccccc12
 : 4% | -12%
COc1ccc(Br)cc1C1CC(=O)N2CN(Cc3ccccc3)CSC2=C1C#N (stereo not given)
 : -5% | i
CCCCOC(=O)c1ccc(Nc2ncnc3c2cnn3-c2cccc(C)c2)cc1
 : -3% | -16%
O=C(CN1C(=O)NC2(CCCC2)C1=O)Nc1ccc(OC(F)(F)F)cc1
 : -8% | -5%
COc1ccc(-c2cc(C(C)=O)c(C)n2CCC(=O)Nc2cc(C)ccc2OC)cc1
 : -10% | -13%
Cc1cc(C)c(S(=O)(=O)Nc2ccc3[nH]c(=O)[nH]c3c2)c(C)c1
 : -22% | ?
CC1CCc2c(sc(NC(=O)COc3ccccc3)c2C(=O)Nc2ccccc2Cl)C1 (stereo not given)
 : -8% | -9%
COC(=O)C(CCSC)NC(=O)c1cc2c(n(-c3ccccc3)c1=O)CC(C)(C)CC2=O (stereo not given)
 : 2%&-20% | -6%&-3%
CCn1c(=O)c2sccc2n2c(CCCC(=O)N3CCN(c4ccccc4OC)CC3)nnc12
 : -6% | -1%
CCOC(=O)c1ccc(N2CCN(c3ccccc3F)CC2)c(NC(=O)Nc2cccc(OC)c2)c1
 : -11% | i
Cc1ccccc1SCC(=O)OCC(=O)NCCNC(=O)COC(=O)CSc1ccccc1C
 : 5% | -12%
Cc1ccc(C(=O)N/C(=C\c2cccs2)C(=O)NCCc2ccccn2)cc1C
 : 0% | -8%
CC(C)OCCCNC(=O)c1ccncc1
 : -10% | -6%
CCCNC(=O)c1ccc(N2CCC3(CC2)CC(c2cccc(Br)c2)=NO3)c(NC(=O)c2ccccc2)c1
 : -19% | -3%
O=C(O)C(C(=O)Oc1ccccc1)C(C(=O)O)C(=O)Oc1ccccc1 (stereo not given)
 : -6% | -11%
CC(C)c1ccc(NC(=O)CN2C(=O)COc3ccc(S(=O)(=O)Nc4ccccc4)cc32)cc1
 : -6% | -8%

Shown as comma-separated lines: entries from further up.
compound,VACV Venus inh,Vaccinia mCherry
CCCNC(=O)c1ccc(N2CCC3(CC2)CC(c2cccc(Br)c2)=NO3)c(NC(=O)c2ccccc2)c1,-19%,-3%
COC(=O)C(CCSC)NC(=O)c1cc2c(n(-c3ccccc3)c1=O)CC(C)(C)CC2=O (stereo not given),2%&-20%,-6%&-3%
Cc1ccc(C(=O)N/C(=C\c2cccs2)C(=O)NCCc2ccccn2)cc1C,0%,-8%
O=C(O)C(C(=O)Oc1ccccc1)C(C(=O)O)C(=O)Oc1ccccc1 (stereo not given),-6%,-11%
O=C(CN1C(=O)NC2(CCCC2)C1=O)Nc1ccc(OC(F)(F)F)cc1,-8%,-5%

Next results follow:
Second line of a record: VACV Venus inh | Vaccinia mCherry
COc1ccc(CCNC(=O)Cn2nc(-c3ccc(Cl)cc3)ccc2=O)cc1OC
 : -7% | -18%
CCCN(C(=O)c1cc2ccc3cccnc3c2[nH]1)c1ccc(F)cc1
 : -12% | i
CCn1cc(C=C2C(=O)N(C)C(=O)N(C)C2=O)c2ccccc21
 : -4% | i
COC(=O)C1CCN(Cc2ccc3c(c2)CN(C(=O)c2cc(C)nc(C)n2)CCO3)CC1
 : -9% | -16%
COc1ccccc1NC(=O)Cn1c(=O)n(-c2ccccc2Cl)c(=O)c2sc3ccccc3c21
 : 0% | -5%
Cc1ccc(-c2nc3ccccc3s2)cc1NC(=S)NC(=O)c1cccc2ccccc12
 : -7% | -6%
O=C(Nc1ccccc1F)c1ccco1
 : -3% | -4%
CN(C)CCOC(=O)COc1ccc(Cl)cc1
 : -16%&-4% | -6%&-3%
CCOc1ccc(NC(=S)N(CCCN2CCOCC2)Cc2cn(C)c3ccccc23)cc1
 : -24% | -36%
CCCn1nc(C(=O)OCC(=O)Nc2ncc(Cl)c(C)c2Cl)c2ccccc2c1=O
 : -7% | -5%
CCOC(=O)Cc1c(C)nc(Cc2ccc(OC(C)C)cc2)[nH]c1=O
 : 3% | i
Cc1cccc(C)c1Nc1nnc(SCC(=O)NCc2cccs2)s1
 : -13% | -2%
COCCNC(=O)c1c(NC(=O)c2ccco2)n(Cc2ccccc2)c2nc3ccccc3nc12
 : 8% | -8%[1.46 µM]
Cc1ccsc1C(=O)N1CCCC(CCC(=O)NCc2ccccc2F)C1 (stereo not given)
 : -12% | i
O=S(=O)(c1ccc2nc(Nc3cccc(F)c3)ccc2c1)N1CCCC1
 : -13% | -20%
O=C(Cn1cnc2ccccc2c1=O)NCCC(=O)Nc1ccccc1C(F)(F)F
 : -6% | i
CCOC(=O)C1CCN(C(=O)Cc2c(C(=O)O)n(CC)c3ccccc23)CC1
 : -5% | i
COc1ccc2[nH]c(=O)c(CN(C(=O)c3cccnc3)c3ccccc3OC)cc2c1
 : -17% | i
NS(=O)(=O)c1ccc(CCNC(=O)CN2CCN(c3cccc(Cl)c3)CC2)cc1
 : ? | ?
Cc1ccc(CNC(=O)CSc2ncc3c(n2)-c2cc(Cl)ccc2N(C)S3(=O)=O)cc1
 : 0% | -17%
O=C(NCC1COCCO1)c1ccc(OC2CCN(CCc3ccccc3)CC2)cc1 (stereo not given)
 : -10% | i
N#Cc1ccsc1NC(=O)CN1CCN(c2ccccn2)CC1
 : -15% | nt
COc1ccc2c(c1)CCc1c(C(=O)Nc3c(C)nn(Cc4ccc(C)cc4)c3C)noc1-2
 : ? | ?
C#CCNC(=O)c1csc([C@@H]2O[C@H](CO)[C@@H](O)[C@H]2O)n1
 : -2% | -7%
CCCNC(=O)C(CC)NC(=O)c1ccc(C#N)cc1 (stereo not given)
 : -16% | i
CCc1ccc(C(C(=O)NC2CCCC2)N(C(=O)/C=C/C(=O)Nc2cc(C)on2)c2ccccc2C)cc1 (stereo not given)
 : ? | ?
Cc1cccc(C)c1NC(=O)C(C)Sc1nnc(C)n1CC1CCCO1 (stereo not given)
 : 4% | i
COc1cc(-c2noc(-c3ccc(NCc4cccnc4)c([N+](=O)[O-])c3)n2)cc(OC)c1OC
 : -19% | -20%
O=S(=O)(CCSc1nc2ccccc2o1)c1nc2ccccc2s1
 : -23% | -12%
Cc1c(NCc2cc(Cl)ccc2O)c(=O)n(-c2ccccc2)n1C
 : -12% | nt
COc1ccccc1NC(=O)c1c(NC(=O)c2cccs2)sc2c1CCC(C(C)(C)C)C2 (stereo not given)
 : -4% | i
CC(=O)c1ccc[n+](CC(=O)c2ccc(F)cc2)c1
 : -10% | i
COCCN(C(=O)CSCC(=O)Nc1ccc(C)cc1)c1c(N)n(CC(C)C)c(=O)[nH]c1=O
 : -3% | -13%
COC(=O)c1ccccc1NC(=O)C1CC(=O)N(c2ccc(F)cc2)C1 (stereo not given)
 : -20% | nt
CC1(C2CC2)NC(=O)N(CC(=O)Nc2ccc(SC(F)F)cc2)C1=O (stereo not given)
 : 0% | i
CCN1CCN(C(=O)CCN2C(=O)c3ccccc3C2=O)CC1
 : 9% | 0%
O=C(NNC(=O)C(O)(c1ccccc1)c1ccccc1)C1CC1
 : 6% | i
CCNc1nc(NC(C)C)nc(N(C)C#N)n1
 : -14% | -8%
COC(=O)Cn1c(CN2CCOCC2)nc2c1c(=O)n(C)c(=O)n2C
 : 3% | i
Cc1cc2nc(-c3ccco3)c(CC(C)(C)C)n2c(C)c1Br
 : -1% | -6%
CCOCCc1nn2c(=O)cc(COC(=O)CNC(=O)c3cccc(C)c3)nc2s1
 : 2% | 2%
O=C(NNc1ccccc1F)c1cccs1
 : -4% | -15%
O=C(NC(=S)Nc1ccccc1Cl)c1cncc(Br)c1
 : -25% | -2%
O=C(COC(=O)COc1ccc2ccccc2c1)NCC(F)(F)F
 : -10% | -2%
CC(=O)Nc1ccc2c(COC(=O)[C@@H](NS(=O)(=O)c3ccc(C)cc3)C(C)C)cc(=O)oc2c1
 : -22% | -27%
Cn1c(CNC(=O)c2ccco2)nnc1SCC(=O)c1ccc(F)cc1
 : -5% | i
O=C(NCC12CC3CC(C1)CC(CNC(=O)N1CCCC1)(C3)C2)N1CCCC1
 : -2% | -10%
Cc1ccc2c(c1)N(C(=O)CSc1nncn1C)C(C)(C)c1ssc(=S)c1-2
 : ? | nt
Cc1c(C#N)c2ccccc2n1CC(=O)NCC1CCCO1 (stereo not given)
 : -19% | -20%
COc1cnc(N(C)C)nc1Sc1ccc(Cl)cc1
 : 3% | i
COc1ccc(NC(NC(=O)c2cccnc2)C(Cl)(Cl)Cl)cc1 (stereo not given)
 : -7% | -11%
O=S(=O)(/N=C(/Nc1nc2ccccc2s1)c1ccccc1)c1ccc(F)cc1
 : -24% | -3%
CC(C)(C)C(CCl)C(=O)NN=C(c1ccccc1)c1ccccc1 (stereo not given)
 : -13% | -14%
CC(=O)N(C1=NCCCS1)c1ccccc1F
 : -5% | -13%
Cc1c(-c2cccc(NC(=O)Nc3ccc(Cl)cc3)c2)nc2ncccn12
 : -16% | -19%
CC(=O)c1c(O)n(C2CCCCCC2)c(=O)[nH]c1=O
 : -1% | -18%
N#C/C(=C(/O)c1ccc(-c2cccc([N+](=O)[O-])c2)o1)c1nc2ccccc2s1
 : 0% | i
COc1ccc([C@H]2N[C@]3(CCCN(CC4CCCCC4)C3=O)[C@H]3C(=O)N(Cc4ccccc4)C(=O)[C@@H]23)cc1
 : -17% | i
COc1cccc(Nc2nc(C)nc3c2oc2ccccc23)c1
 : -18% | i
COc1cc(Cl)c(C)cc1NC(=O)CCCN1C(=O)C(c2ccccc2)Oc2cccnc21 (stereo not given)
 : -14% | -19%

Continuation.
Second line of a record: VACV Venus inh | Vaccinia mCherry
O=C(Cn1cccc1)Nc1ccc(OC(F)(F)F)cc1
 : -17% | -15%
O=C(NCc1ccc(Cl)cc1)c1ccc(OCC2CCCO2)cc1 (stereo not given)
 : -14% | i
Cc1nc2nc(-c3ccco3)[nH]n2c(=O)c1Cc1ccccc1
 : -2% | nt
CCOc1ccc(CCN2C(=O)C(=O)N([C@@H](CC(C)C)CN3CCC[C@@H]3CN3C(=O)C(=O)NC[C@@H]3CC(C)C)C[C@@H]2Cc2ccccc2)cc1
 : -11% | 3%
Cc1cccc(Nc2cc(=O)[nH]c(=O)[nH]2)c1
 : -6% | -5%
CCOc1ccc(NS(=O)(=O)c2cc3c4c(c2)CCN4C(=O)CC3)cc1
 : -19% | -6%
O=C(Nc1nnc(CCc2ccccc2)s1)C1CCN(C(=O)c2ccco2)CC1
 : -9% | -14%
Cn1c(=O)c2c(nc(NCCNC(=O)c3ccco3)n2Cc2ccc(Cl)cc2Cl)n(C)c1=O
 : -14% | i
CCN1C(=O)[C@H]2[C@@H](c3ccc(C)cc3)N3C(=O)N(c4cccc(F)c4)C(=O)[C@@]3(CC)[C@H]2C1=O
 : -8% | -1%
C[C@@H]1CC2OC(=O)[C@@]3(C)C(=O)CC[C@@](C)(C23)[C@@]1(O)CCc1ccoc1 (stereo not given in full)
 : -10% | -15%
Oc1ccc(/C=N/N(Cc2ccccc2)c2ccccc2)cc1
 : -18% | -3%
CC(OC(=O)CN1C(=O)NC(C)(C)C1=O)C(=O)c1ccccc1 (stereo not given)
 : -9% | nt
COc1cc(NC(=O)C2CCCN(S(=O)(=O)c3ccc4c(c3)oc(=O)n4C)C2)c(C(=O)O)cc1OC (stereo not given)
 : 1% | 0%
O=C1C2=C(Nc3ccccc3SC2c2ccccc2C(F)(F)F)c2ccccc21 (stereo not given)
 : -15% | ?
COc1ccc(-c2c(O)c(C#N)c(-c3ccccc3)n(-c3ccc(OC)cc3)c2=O)cc1
 : -6% | i
O=P(c1ccccc1)(c1ccccc1)c1ccccc1C(Br)Br
 : -21% | -10%
Cn1c(=O)cc(SCC(=O)N2CCC3(CC2)OCCO3)c2ccc(Cl)cc21
 : ? | -7%
Cc1ccc(S(=O)(=O)NC(C)C(=O)N2CCOCCOCCOCCOCC2)cc1 (stereo not given)
 : -3% | -3%
O=C(Cn1c(=O)n(Cc2ccco2)c(=O)c2ccccc21)NCC1CCCO1 (stereo not given)
 : 1% | nt
